YopH PTP inh: YopH (Yersinia) phosphatase inhibition; fluorescence Ex485/Em525; inhibition, %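 (about 10 µM by stock and volumes)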; hit rate 0.16% among 140,000;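 active = inhibition of 50% or more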;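 note: controls were vehicle for no effect and minimum signal wells for full effect; inactives centre near -20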
RecA intein inh: blocks M. tuberculosis RecA intein splicing | hit rate 0.75% among 290,000 | cell-free RecA intein splicing, fluorescence | AID 2221 | inhibition, %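 (about 9 µM by stock and volumes)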 | P9WHJ3; in the data active = inhibition above about 30%; inconclusive = no clear call, values can overlap the other calls;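 note: 0% = vehicle wells and 100% = reference inhibitor control wells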
Target sequence (P9WHJ3 whole entry, looked up): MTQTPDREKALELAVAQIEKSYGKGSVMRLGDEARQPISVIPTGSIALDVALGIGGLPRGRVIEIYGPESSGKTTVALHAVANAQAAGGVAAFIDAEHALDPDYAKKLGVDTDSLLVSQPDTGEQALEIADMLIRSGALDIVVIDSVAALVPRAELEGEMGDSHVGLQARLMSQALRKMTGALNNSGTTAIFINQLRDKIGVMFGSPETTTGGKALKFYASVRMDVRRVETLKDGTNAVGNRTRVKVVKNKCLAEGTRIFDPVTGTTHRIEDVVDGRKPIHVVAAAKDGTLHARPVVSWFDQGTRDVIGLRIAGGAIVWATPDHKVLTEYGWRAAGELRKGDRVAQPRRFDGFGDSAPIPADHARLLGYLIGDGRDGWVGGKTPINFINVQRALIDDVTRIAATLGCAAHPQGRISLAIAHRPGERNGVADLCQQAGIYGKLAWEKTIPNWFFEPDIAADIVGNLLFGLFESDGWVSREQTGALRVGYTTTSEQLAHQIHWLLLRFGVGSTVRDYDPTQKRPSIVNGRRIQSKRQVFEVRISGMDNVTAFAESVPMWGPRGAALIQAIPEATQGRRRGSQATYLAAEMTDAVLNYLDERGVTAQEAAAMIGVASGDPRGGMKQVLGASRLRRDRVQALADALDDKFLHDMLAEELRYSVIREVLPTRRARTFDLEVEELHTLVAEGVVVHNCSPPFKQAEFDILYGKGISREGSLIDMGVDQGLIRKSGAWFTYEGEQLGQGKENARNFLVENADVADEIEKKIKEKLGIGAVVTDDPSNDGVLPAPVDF
Mtb growth: M. tuberculosis H37Rv growth inhibitors, H37Rv strain (AID 1626) | M. tuberculosis H37Rv growth inhibition; higher % means a stronger effect | inhibition, % at 10 µM, or IC50 in µM where a hit was titrated | hit rate 0.95% among 220,000;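 active = confirmed in a dose series; inconclusive = inhibition above 80% but not taken into the dose series; inactive = below 80% or under 30% at every dose of the series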;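 note: bacteria incubated seven days before Alamar blue readout; 0% = bacteria only wells and 100% = bacteria with antibiotic wells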
Mtb bLac sens: beta-lactam sensitization of Mtb H37Rv; M. tuberculosis H37Rv growth with meropenem, percent inhibition; hits of this screen are not shown here; inhibition, % at 25 µM; hit rate 0.27% among 330,000; AID 434955;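 active = about 74% or more and at least 40 points above the plate without the antibiotic, then above 30% in a dose series; inconclusive = first-round hits that could not be retested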;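 note: growth measured after seven days incubation then overnight dye step; 0% = bacteria only wells and 100% = bacteria with antibiotic; twin plates without the antibiotic show which effects depend on it; some results filed as inactive read as strong as hits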
Arbovirus anti: blocks arbovirus infection; hit rate 0.37% among 200,000; AID 1251; arbovirus infection cell-based antiviral screen; inhibition, % at 10 µM;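 active = inhibition from about 30%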;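 note: bluetongue infection of BSR cells; cell survival read as ATP light after 72 h; 0% = infected wells without compound and 100% = uninfected wells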
Arbovirus anti repeat: recorded beside Arbovirus anti, whose call it bears; inhibition, %; measured here: 10K subset replicate screen; many hits read low in the repeat;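 first of two repeat runs on a subset; 0% = infected and 100% = uninfected wells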
Starred values were filed as active, the others as inactive; ? = inconclusive; · = no result given.

The opening five records as a preview:
SMILES	YopH PTP inh	RecA intein inh	Mtb growth	Mtb bLac sens	Arbovirus anti	others
O=C(c1ccccc1F)N(Cc1cccs1)C1CCS(=O)(=O)C1 (stereo not given)	·	0.5	·	-4	·
CCOC(=O)c1cc(C)sc1/N=C/C1C(=O)CC(C)(C)CC1=O	-3	-2.0	7%	1	0
CN1CCc2c(C#N)c(Cl)nc(Cl)c2C1	-7	-6.0	5%	2	8
Cc1occc1C(=O)NCc1ccccn1	-10	-0.2	-10%	?	5
CN(C(=O)/C=C/c1ccccc1)C1CCS(=O)(=O)C1 (stereo not given)	-28	-0.4	-2%	6	1

This part in full (from the top)
SMILES	YopH PTP inh	RecA intein inh	Mtb growth	Mtb bLac sens	Arbovirus anti	others
O=C(c1ccccc1F)N(Cc1cccs1)C1CCS(=O)(=O)C1 (stereo not given)	·	0.5	·	-4	·
CCOC(=O)c1cc(C)sc1/N=C/C1C(=O)CC(C)(C)CC1=O	-3	-2.0	7%	1	0
CN1CCc2c(C#N)c(Cl)nc(Cl)c2C1	-7	-6.0	5%	2	8
Cc1occc1C(=O)NCc1ccccn1	-10	-0.2	-10%	?	5
CN(C(=O)/C=C/c1ccccc1)C1CCS(=O)(=O)C1 (stereo not given)	-28	-0.4	-2%	6	1
CN1CCN(c2nc3ccccn3c(=O)c2C=C(C#N)C#N)CC1	·	-9.1	·	-11	·
Cc1[nH]n(-c2ccc([N+](=O)[O-])cc2)c(=O)c1C=NCCN1CCN(C(=O)c2ccccc2F)CC1	-17	·	-5%	-3	-9
COc1cc(NC(=O)COc2cccc(OC)c2)cc(OC)c1	-38	0.3	48%	43	10
O=C(Nc1ccc(N2CCOCC2)cc1N1CCOCC1)c1cccc([N+](=O)[O-])c1	·	-1.1	·	-1	·
CCN(CC)S(=O)(=O)c1ccc(N2CCOCC2)c(NC(=O)c2cccc3ccccc23)c1	-24	-2.0	11%	-1	3
COc1ccc(NC(=O)C(CC(C)C)NC(=O)C2CCC(C)CC2)c(OC)c1 (stereo not given)	·	5.4	-8%	54	0
O=C(N[C@@H](Cc1c[nH]c2ccccc12)C(=O)O)C1CCN(S(=O)(=O)c2ccc(Cl)cc2)CC1	·	1.0	·	-4	·
O=C(NCC1OCCc2ccccc21)c1ccc(NC(=O)c2ccccc2Cl)cc1 (stereo not given)	-18	-4.6	15%	7	-18
CCOc1ccc2[nH]c3c(NCCN(C)C)ncnc3c2c1	·	1.7	·	-8	·
O=C(NC(=S)NC1C2CC3CC(C2)CC1C3)c1ccccc1 (stereo not given)	·	11	·	16	·
Cc1c(C(=O)NCCS(=O)(=O)N2CCN(c3ccccc3F)CC2)cccc1[N+](=O)[O-]	·	-1.1	·	5	·
O=C(c1ccc(F)cc1)N1CCC2(CC1)NCCc1[nH]cnc12	·	-2.3	·	-6	·
CCOC(=O)CNC(=O)c1cc(C)oc1C	-17	·	-5%	-12	0
C#CCNc1c2c(nc3ncnn13)CC(C)CC2 (stereo not given)	·	0.7	-7%	-10	·
CCOC(=O)C1=C(C)N=C2c3ccccc3C(=O)C2C1c1ccc(C)cc1 (stereo not given)	-14	-1.0	11%	2	-3
CC(CN1C(C)CCCC1C)OC(=O)c1ccccc1F (stereo not given)	·	-2.9	·	7	·
CCOC(=O)C1CCN(C(=O)CN(c2cccc(C(F)(F)F)c2)S(C)(=O)=O)CC1	-40	·	-5%	-5	1
COc1ccc(CC(=O)Nc2ccc(N3CCCC3)c(C)c2)cc1	·	-1.4	·	8	·
Cc1ccc(CNC(=O)C2(C(F)(F)F)C/C(=C\Cc3ccccc3)CCCO2)o1 (stereo not given)	·	6.7	·	-2	·
O=C(COc1cccnc1[N+](=O)[O-])Nc1ccc(N2CCOCC2)cc1	·	-2.0	2%	-4	2
CCOC(O)[C@H]1N[C@@H](c2ccc(Cl)cc2)[C@@H]([N+](=O)[O-])[C@@H]1c1ccccc1 (stereo not given in full)	-31	-3.3	-6%	-1	5
O=C(c1ccc(S(=O)(=O)N2CCCCC2)cc1)N1CCc2ccccc2C1	·	-123	-1%	-3	-1
Nn1c(SCC(=O)Nc2ccccc2F)nnc1-c1cccnc1	-39	1.0	-7%	0	-5
CCS(=O)(=O)c1nc(S(=O)(=O)c2ccc(Cl)cc2)c(N2CCN(C)CC2)s1	·	-3.4	·	-2	·
CN(C)/C=N/C(=S)Nc1ccc(Cl)cc1	·	0.2	-10%	-1	-3
Cc1c(C(=O)c2ccc(Br)cc2)c(=O)n(C)c(=O)n1C	·	5.1	1%	0	12
O=C(COC(=O)C1CC1)Nc1ccc(Oc2ccccc2)cc1	-32	2.0	76%	88	-3
COc1ccc(C(=O)CCNc2ccc(C)c(Cl)c2)cc1	-29	3.3	59µM*	·	9
O=C(Nc1cccc(C(F)(F)F)c1)C12CC3CC(CC(C3)C1)C2	-8	0.5	76%	99	-7
Cc1ccc(NC(=O)Cc2ccsc2)cc1Cl	·	4.3	·	40	·
COc1ccccc1NC(=O)Cc1coc2cc(C)ccc12	-22	7.4	-3%	2	-2
COc1ccc(Cc2nnc(SC(C)C(=O)Nc3ccc(C(N)=O)cc3)o2)cc1 (stereo not given)	·	-1.8	·	2	·
CCOc1nc(Nc2ccccc2F)nc(OCC)n1	·	-3.4	·	-2	·
CN(C)S(=O)(=O)c1cccc(NC(=O)Cn2cc(C(F)(F)F)cc(Cl)c2=O)c1	·	-4.2	-6%	4	9
CCOC(=O)CCc1c(C)c2ccc(OCC(=O)N3CCOCC3)c(C)c2oc1=O	·	-1.3	·	-12	·
O=C(c1ccc(F)cc1)C1CCN(C(=O)c2ccncc2)CC1	-8	-3.9	-8%	-9	-1
Cc1ccc(-c2csc3nc(=O)c(C)nn23)cc1	·	-1.4	-10%	-6	·
O=C(NC(C(=O)N/N=C/c1cccnc1)c1n[nH]c(=O)c2ccccc12)c1ccccc1 (stereo not given)	·	-0.4	-11%	-6	·
C=C1CC2C(=O)N(Cc3cc(OC)ccc3OC)C(C(=O)OCC)(C(=O)OCC)C1N2C(=O)OC(C)(C)C (stereo not given)	·	2.2	-3%	-8	·
COc1ccccc1C(=O)NCCN=C1NS(=O)(=O)c2ccccc21	·	0.0	·	-4	·
O=C(Nc1cccc(Cl)c1)N1CCN(C2c3ccccc3-c3ccccc32)CC1	·	-0.6	·	-8	·
c1ccc(-c2nc(-c3ccccn3)no2)cc1	6	2.7	1%	2	-15
Cc1cccc(-n2c(SCc3ccc(C#N)cc3)nnc2-c2c[nH]c3ccccc23)c1	-11	0.2	3%	6	2
Nc1c(C(=O)NCc2ccccc2)nnn1Cc1ccc(F)cc1	9	0.6	2%	4	2	Arbovirus anti repeat=5
Cc1cccc(CN2C(=O)c3ccccc3S(=O)(=O)c3ccc(C(=O)NCCCN4CCCC4)cc32)c1	·	3.2	·	2	·
CCN(CC(=O)Nc1c(F)cccc1F)C(=O)CNC(=O)c1cccc(C)c1	·	0.2	·	-3	·
CC1CCN(CC(=O)NCCc2ccc(F)cc2)CC1	·	1.3	-3%	-3	-4
CCc1ccccc1N(CC(=O)NCc1ccco1)C(=O)CCC(=O)Nc1ccccn1	·	1.2	·	0	·
Nc1nc(NCC2CCCO2)nc(Nc2ccc(F)cc2)c1[N+](=O)[O-] (stereo not given)	-31	-1.8	9%	4	1
CCCN1CCN(S(=O)(=O)c2ccc3c(c2)NC(=O)C(C)S3)CC1 (stereo not given)	·	-3.2	·	1	·
O=C(Nc1ccccn1)C1CCN(S(=O)(=O)c2cccc3nonc23)CC1	-25	-1.4	-7%	-12	1
Cc1cc(C)nc(NC2=NC3CCCCC3N2)n1 (stereo not given)	-25	0.7	-7%	-25	9
CS(=O)(=O)c1ccc(C(=O)Nc2ccc(N3CCCCC3)cc2)c(Cl)c1	·	-1.4	-4%	0	-2
Cc1cc(-c2ccc(NC(=O)[C@@H]3CCCC[C@@H]3C(=O)O)c(C)c2)ccc1NC(=O)[C@@H]1CCCC[C@@H]1C(=O)O	·	5.5	7%	-1	-5
CCN(C1CCCCC1)S(=O)(=O)c1ccc(OC)c(C)c1	-19	11	0%	4	-2
(more compounds)
SMILES	YopH PTP inh	RecA intein inh	Mtb growth	Mtb bLac sens	Arbovirus anti	others
CC(OC(=O)c1ccccc1NCc1ccco1)C(=O)Nc1ncc(Cl)cc1Cl (stereo not given)	-20	2.9	-2%	-10	11
Cc1cccc(C)c1OCC(=O)NCc1ccccc1	·	0.2	·	6	·
Cc1ccc(-n2nnnc2-c2cccc(C)c2)cc1	·	1.1	11%	-3	0
O=C1/C(=C/c2cccs2)SC(=S)N1CCC(=O)N1CCCCC1CCO (stereo not given)	·	12	·	74	·
CC(=O)NC(=O)c1ccc(-c2ccc(Cl)cc2)o1	7	-1.8	11µM*	96	-12
CC(Sc1nc(-c2ccccc2)cc(C(F)(F)F)n1)C(=O)NCCN1CCOCC1 (stereo not given)	-1	·	-5%	-1	0
CCOc1ccc(-c2cc(CCCC(=O)Nc3cccc(OC)c3)no2)cc1	-31	0.4	11µM*	86	-7	Arbovirus anti repeat=-14
CC(c1ccccc1)N1C(=O)c2ccc(C(=O)Nc3ccccc3C(=O)O)cc2C1=O (stereo not given)	·	12	·	3	·
C=CCC1(CC=C)CCCN1C(=O)c1cc(COc2ccc(-n3cncn3)cc2)on1	·	-0.1	·	93	·
COc1ccc(CCNC(=O)Cn2c(-c3nonc3N)nc3ccccc32)cc1OC	-61	1.9	·	-4	6
CC(C(=O)O)N(C(=O)c1ccccc1)c1ccc(F)cc1 (stereo not given)	·	8.5	7%	-4	0
Cc1cccc(N2CCN(C(=O)c3cc4ccccc4oc3=O)CC2)c1C	-6	4.6	-3%	9	16	Arbovirus anti repeat=13
COc1ccc2nc(C(F)(F)Cl)c(C#N)c(N)c2c1	·	3.9	-1%	-13	·
CCCCC1OC2(C)OC(=N)C1(C#N)C(C#N)(C#N)C2c1ccccc1 (stereo not given)	-27	·	0%	-2	-6
Cn1c2ccccc2c2c(C(=O)N3CCN(C(=O)c4ccco4)CC3)cn(C3CCCCC3)c(=O)c21	-10	2.2	-7%	2	-21
CC(C)(C)C(=O)Nc1ccc(S(=O)(=O)N2CCCC2)cc1	·	-3.1	·	-4	·
COc1cc(C2=NOC(C(=O)N3CCOCC3)C2)cc(OC)c1OC (stereo not given)	-31	-5.5	-3%	-7	4
NC(=O)c1ccc2nc(NC(=O)c3ccc(N)cc3)sc2c1	·	-0.2	4%	·	-2
COCCOC(=O)c1c(NC(=O)CNC2CCCc3ccccc32)sc(C(N)=O)c1C (stereo not given)	·	0.6	-10%	-3	·
O=C(Nc1cccc2ncccc12)c1ccc(-c2ccc(Br)cc2)o1	-34	2.0	50%	28	4
O=C(C1CC1)N1CCc2cc(S(=O)(=O)NCCC3=CCCCC3)ccc21	-10	-5.4	-7%	-6	-7
O=C(c1ccco1)N1CCC(N2CCN(c3ccccc3)CC2)CC1	·	1.5	-2%	4	·
CC1CCCCN1CCNC(=O)c1cc2c(=O)n(C)c3ccccc3c2n1C (stereo not given)	-28	-1.3	-2%	4	3	Arbovirus anti repeat=-3
COC(=O)CC/C(O)=C1\C(=O)CC(C)(C)CC1=NCCc1nc2ccccc2[nH]1	·	·	-3%	-6	6

Random excerpt: 2 entries already listed
SMILES	YopH PTP inh	RecA intein inh	Mtb growth	Mtb bLac sens	Arbovirus anti	others
O=C(c1ccco1)N1CCC(N2CCN(c3ccccc3)CC2)CC1	·	1.5	-2%	4	·
Cn1c2ccccc2c2c(C(=O)N3CCN(C(=O)c4ccco4)CC3)cn(C3CCCCC3)c(=O)c21	-10	2.2	-7%	2	-21

The list goes on.
SMILES	YopH PTP inh	RecA intein inh	Mtb growth	Mtb bLac sens	Arbovirus anti	others
O=c1c2ccccc2nc2c3ccccc3c3nncn3n12	-53	-0.3	-3%	·	-15
CC1Cc2cc(C(=O)O)ccc2O1 (stereo not given)	-36	-0.9	-6%	-14	3
Cc1c(Cl)cccc1NC(=O)c1ccccc1-c1ccccc1C(=O)O	·	1.6	·	0	·
COc1ccc(OC)c(S(=O)(=O)CC(O)CS(=O)(=O)c2ccccc2)c1 (stereo not given)	·	1.1	·	-2	·
C#CCOC(=O)c1ccccc1C(=O)n1nnc2ccccc21	-20	51*	-3%	31	2
CC(C)OC(=O)CN1C(=O)C(C)(C)Oc2ccc(C(=O)NC(C)(C)C)cc21	-12	0.6	-13%	-6	-5
O=C(Nc1ccccc1)OCc1ccccn1	-24	-0.3	1%	-2	8
COc1ccc(-n2[nH]c(C)cc2=O)cc1	-14	-1.8	9%	86	-4
CCN(C(=O)C1CC1)C1CCS(=O)(=O)C1 (stereo not given)	·	0.6	·	-4	·
COc1cc(S(=O)(=O)n2ccnc2)ccc1Br	·	-1.5	-2%	3	-1
COc1ccc(NC(=O)CSc2nc3sc4c(c3c(=O)n2-c2ccc(OC)cc2)CCN(C)C4)cc1	·	7.1	·	10	·
O=C(Oc1ccc(=O)n(-c2ccccc2)n1)c1ccc(F)cc1	·	4.5	5%	-2	1

This is a subset, so the mix of outcomes need not match the whole.
